Source: PubChem
HIV TAR-Tat: HIV-1 TAR-Tat binding disruption; HIV-1 TAR RNA, Tat peptide displacement FRET; active compounds read high; z-score (concentration not given with the values); hit rate 0.6% among 100,000;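 note: score is relative to mean and SD of negative controls; some compounds called inactive have numbers as strong as hits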
CDC25B-CDK2 inh: human CDC25B-CDK2/CyclinA binding inhibition; hit rate 0.72% among 94,000; P30305+P24941; HTRF CDC25B-CDK2/CyclinA binding, anti-His/anti-Flag; active compounds read high; z-score (concentration not given with the values); AID 1259370;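 note: score is relative to mean and SD of negative controls; strong numbers were not always called active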
* hit, by the source's call; / = not tested or not shown.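 Rule for the calls: active = z-score from 3 up in half or more of its runs; inactive = the rest.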 Random draw from the library; any-hit rate near 0.89%.

SMILES	HIV TAR-Tat	CDC25B-CDK2 inh
CCCc1cc(=O)n2nc(N3CCC(C(=O)NCCc4cccs4)CC3)sc2n1	-0.2	-0.5
CCN(CC)c1ccc(/C=N/NC(=O)CNc2ccc3ccccc3c2)c(O)c1	/	-0.68
Cc1ccc(C)c(S(=O)(=O)c2nnn3c2nc(NCc2ccco2)c2sccc23)c1	0.05	/
CCc1nn(CC(=O)NC(C)c2ccc3c(c2)OCCO3)c(=O)c2cc3sccc3n12 (stereo unspecified)	0.76	-1
O=C(CSc1ccccn1)Nc1ccc2nc(SCc3cccc4ccccc34)sc2c1	/	-3.7
COc1ccc(OC)c(NC(=O)N2CC=C(c3c[nH]c4ccccc34)CC2)c1	-6.2	/
CN(CC(=O)N1CCN(C(=O)c2ccco2)CC1)c1nnc(N2CCCC2=O)s1	0.62	/
O=c1c2c(nc(NCCO)n1-c1ccccc1)-c1ccccc1CC21CCCC1	0.05	0.17
O=C(Nc1ccc2c(c1)OCCO2)c1sc2ccccc2c1Cl	/	-3.3
COc1ccc(C(=O)OCc2cc(=O)n3nc(C)sc3n2)cc1OC	-0.01	/
Cc1cccc(NCC(O)Cn2c3ccccc3c3ccccc32)c1 (stereo unspecified)	/	-1.9
CC1=C(c2ccc(C(C)C)cc2)S(=O)(=O)N=C1N(C)Cc1ccccc1	-0.59	-4.9
COc1ccc(CNc2ccc3c(c2)ncn3C)c(OC)c1	/	-1.5
COc1cccc(/C=C/c2nc(C#N)c(N3CC(C)CC(C)C3)o2)c1 (stereo unspecified)	1.7	-1.5
C/C(=C\CO)CC[C@@H]1[C@@]2(C)CCCC(C)(C)C2CC[C@@]1(C)O (stereo partly specified)	1.4	/
Cc1cc(C)n(Cc2nc3c4c(C)c(C)oc4ncn3n2)c(=O)c1C#N	0.44	/
CCOC(=O)c1[nH]c(Cc2[nH]c(C(=O)OCC)c(C)c2CC)c(CC)c1C	/	-2.4
Cc1ccc2nc(C)cc(N3CCOCC3)c2c1	1.9	-2.3
O=c1oc2ccccc2c2c1ncn2CCN1CCCC1	0.05	-1.3
O=S(=O)(NCC(c1ccco1)N1CCN(c2ccccc2F)CC1)c1ccccc1 (stereo unspecified)	0.35	/

Shown as comma-separated lines: 2 of the compounds above
SMILES,HIV TAR-Tat,CDC25B-CDK2 inh
CCOC(=O)c1[nH]c(Cc2[nH]c(C(=O)OCC)c(C)c2CC)c(CC)c1C,/,-2.4
COc1cccc(/C=C/c2nc(C#N)c(N3CC(C)CC(C)C3)o2)c1 (stereo unspecified),1.7,-1.5

Returning to the listing; the three compounds before the break are reprinted first.
SMILES	HIV TAR-Tat	CDC25B-CDK2 inh
Cc1ccc2nc(C)cc(N3CCOCC3)c2c1	1.9	-2.3
O=c1oc2ccccc2c2c1ncn2CCN1CCCC1	0.05	-1.3
O=S(=O)(NCC(c1ccco1)N1CCN(c2ccccc2F)CC1)c1ccccc1 (stereo unspecified)	0.35	/
O=C(CC1Oc2ccccc2NC1=O)NC1CCCCCC1 (stereo unspecified)	/	0.29
Cc1noc(C(F)(F)F)c1-c1nnc(-c2cccc(C(F)(F)F)c2)o1	/	-0.41
COC(=O)c1cc2ccsc2n1Cc1nc(-c2cccs2)oc1C	0.45	-0.77
Cc1cccc(-c2nc3c4c(C)c(C)n(Cc5cccnc5)c4ncn3n2)c1	-0.78	-5.4
O=C1c2[nH]nc(-c3ccccc3O)c2C(c2cccc(Cl)c2)N1Cc1cccnc1 (stereo unspecified)	0.13	2.1
CCN1CCN(c2ncnc3c2cnn3-c2cc(Cl)ccc2C)CC1	0.71	/
COc1cccc(-n2c(=O)[nH]c3c(C(N)=O)nc(-c4ccccn4)nc32)c1	1.5	/
Cc1ccc(C(C)C)c(OCc2nc3c4cnn(-c5ccccc5)c4ncn3n2)c1	-0.32	0.63
CCCc1nn2c(=O)cc(COc3cccc(OC)c3)nc2s1	0.58	-1.5
Cc1cc(OCc2nc3ccccc3[nH]2)ccc1Cl	1	-0.68
Cn1cc(C(=O)O/N=C(\N)c2ccc(C(C)(C)C)cc2)c(C(F)(F)F)n1	/	-0.66
CC(C)c1ccc(NC(=O)Nc2csc3c2CCCC3)cc1	0.36	-0.04
Cc1nn(-c2cccc(Cl)c2)c2nc(-c3ccccn3)cc(C(F)(F)F)c12	0.4	-1
CC1=CC23C(=O)C(C=C(CO)[C@@H](O)[C@]2(O)[C@H]1O)[C@H]1[C@@H](C[C@H]3C)C1(C)C (stereo partly specified)	0.37	/
Cn1c(=O)c2c(-c3ccccc3Cl)n(C3CCCCC3)cc2n(C)c1=O	0.23	0.09
COc1ccc(OCc2nnc(NC(=O)Nc3ccccc3F)s2)cc1	1.4	-0.22
O=S(=O)(NCc1cn2ccsc2n1)c1ccccc1	/	-0.62
CCCCC(=O)N(c1ccc2oc(=O)sc2c1)S(=O)(=O)c1ccc(OCC)cc1	0.13	-4.4
CC1CCN(C(=O)Cn2nnc3sc4c(c3c2=O)CCC(C)C4)CC1 (stereo unspecified)	-0.47	0.31
COc1ccc(C2C=C(c3ccc(F)cc3)Nc3nc(CCCO)nn32)cc1 (stereo unspecified)	0.69	0.03
Cc1c(CCNS(=O)(=O)c2ccc(Cl)cc2)sc2nc(-c3ccc(Cl)cc3)nn12	0.48	/
COC(=O)c1ccc(S(=O)(=O)N(Cc2ccccc2)C(C)C)o1	/	-0.08
CCN(C(=O)CSc1nnc(-c2cccs2)o1)c1ccccc1	3	-1.3
Cc1ccc2nc(NCc3ccncc3)c3nnnn3c2c1	-0.44	/
CCCSc1nc(C)nc2c1sc1nc3c(cc12)COC(C)(C)C3	0.2	/
Cc1ccc(NC(=O)CSCc2cc(=O)n3oc(C)cc3n2)c(C)c1	0.74	/
CCOC(=O)c1ccc2c(c1)NC(=O)C1CCCCN21 (stereo unspecified)	-0.63	/
CC1CCN(c2c(S(=O)(=O)c3ccccc3)cnc3ccccc23)CC1	0.53	-0.37
CCS(=O)(=O)N1CCN(Cc2noc(CCC(=O)N3CCOCC3)n2)CC1	-1.9	/
Cc1cn2c(=O)cc(COC(=O)Cc3ccccc3)nc2s1	-1.2	/
COc1ccc(-c2nc3ncccn3c2NCc2ccc(C)cc2)cc1OC	-0.35	/
CCOC(=O)CCc1c(C)nc2ncnn2c1C	1.8	0
CCc1nn(CC(=O)NCCc2cccs2)c(=O)c2cc3ccccc3n12	-0.94	0.37
Cc1c(C)c(C)c(S(=O)(=O)N=C(N)N)c(C)c1C	/	-1.8
CCOc1cc(C2CC(=O)N3CN(c4ccc(C)cc4)CSC3=C2C#N)ccc1O (stereo unspecified)	3	3.2*
COc1cc(-c2[nH]nc3c2C(c2cccc(Br)c2)C(C#N)=C(N)O3)cc(OC)c1OC (stereo unspecified)	/	-0.29
COc1ccc(-c2nc3c(c(SC)n2)Cc2ccccc2O3)cc1	4.3	-1.1
O=C(O)c1ccc(N2C(=O)CC(N3CCN(C/C=C/c4ccccc4)CC3)C2=O)cc1 (stereo unspecified)	0.04	0.25
NC(=O)c1nc(Nc2ccccc2)sc1NC(=O)CC1CCCCC1	0.93	/
O=c1[nH]c(SCc2ccccc2)nn2c(=O)c3ccccc3nc12	0.58	-1.1
Cc1ccc(C)n1-c1nnc(N2CCC(C(=O)NCCN3CCOCC3)CC2)s1	0.47	-0.37
Cc1cc2nc(COC(=O)CSc3ccc(Cl)cc3)cc(=O)n2o1	1.3	/
CC1CCCCC1NC(=O)Cn1ncc2ccc(Cl)cc21 (stereo unspecified)	1.3	-0.26
CC(C)Cc1nn2c(=O)cc(COC(=O)CNC(=O)c3ccc(C(C)(C)C)cc3)nc2s1	0.41	/
COC(=O)C1=C(C)NC2=C(C(=O)CCC2)C1c1ccc(O)cc1 (stereo unspecified)	0.47	-0.32
CC1CCCCN1CC(O)COc1ccc(C(C)(C)C)cc1 (stereo unspecified)	/	-1.8
O=C(NC1CCCC1)c1cc(S(=O)(=O)N2CCCCC2)c[nH]1	2.3	/
COC(=O)c1ccc(N2C(=O)c3ccncc3C2=O)cc1	-0.35	-2.1
CCOCCc1nn2c(=O)cc(COC(=O)COc3ccc(C)c(C)c3)nc2s1	-0.95	/
O=C(C1CCCN(Cc2cnn(-c3ccccc3)c2-n2cccc2)C1)N1CCc2ccccc21 (stereo unspecified)	0.19	-0.34
COc1ccc(S(=O)(=O)N2CCCCC2C)cc1 (stereo unspecified)	1.4	0.07
CC1(C)Cc2nc3sc4c(N5CCOCC5)ncnc4c3cc2CO1	2.1	-0.61
COc1ccc(OC)c(NC(=O)Nc2nnc(N3CCCC3)s2)c1	0.13	-2.1
O=S(=O)(NCC(c1ccco1)N1CCN(c2ccccc2F)CC1)c1ccc(Cl)cc1 (stereo unspecified)	0.87	/
O=C(NCc1cccs1)c1cc(-c2ccc3c(c2)OCO3)on1	-1.2	-5.9
Cc1c(C(=O)N2CCCCC2c2cccnc2)sc2nc3n(c(=O)c12)CCCCC3 (stereo unspecified)	2.2	/
O=C(c1nn2c(c1Cl)NC(c1ccc(F)cc1)CC2C(F)(F)F)N1CCCCC1 (stereo unspecified)	1.3	-0.56
CC(C)=CCc1c(O)cc(C)oc1=O	-2	/
COc1ccc(-c2cc(C)no2)cc1S(=O)(=O)N1CCC(c2ccccc2)C1 (stereo unspecified)	0.69	/
Cc1ccccc1OCCSc1nc2ncnc(N)c2[nH]1	1	0.06

Another view of some results above:
Results follow in this order: HIV TAR-Tat, CDC25B-CDK2 inh
CCOC(=O)c1[nH]c(Cc2[nH]c(C(=O)OCC)c(C)c2CC)c(CC)c1C
 : /, -2.4
CCCc1nn2c(=O)cc(COc3cccc(OC)c3)nc2s1
 : 0.58, -1.5
Cc1cc(OCc2nc3ccccc3[nH]2)ccc1Cl
 : 1, -0.68

(list continues)
SMILES	HIV TAR-Tat	CDC25B-CDK2 inh
CCOC(=O)c1nc(Nc2ccc(F)cc2F)c2c(C)noc2n1	1.2	/
CCc1nc(SCc2ccc(OC)cc2)n[nH]1	2.1	-1.1
Cc1cc(C)c(NS(=O)(=O)c2cn(C)cn2)c(C)c1	0.81	/
Cc1csc2nc(COC(=O)CNC(=O)c3ccco3)cc(=O)n12	1.7	/
CCc1ccc(-n2nnc(-c3nc(-c4ccccc4C)no3)c2N)cc1	0.55	/
CN(CC(=O)N1CCCCCC1)S(=O)(=O)c1ccc2c(c1)n(C)c(=O)c(=O)n2C	/	-0.57
Clc1ccc(-c2csc(-c3cccnc3)n2)cc1	-0.03	0.12
CCCCCn1c(CN2CCN(C(=O)OCC)CC2)nc2c1c(=O)[nH]c(=O)n2C	0.26	-1.2
O=C(CSc1nc2ccc([N+](=O)[O-])cc2s1)Nc1ccccc1-c1ccccc1	/	-11
COc1ccc(-n2c(SCC(=O)N3CCOCC3)nc3c(c2=O)SCC3)cc1	1.7	1.8
O=C(Nc1ccccc1Br)C1=Cc2sc3c(c2CS1)CCCC3	-3.5	/
COc1ccc(N2CCCS2(=O)=O)cc1NS(=O)(=O)c1ccc(F)c(C)c1	-0.54	/
CCSc1ncc2c(=O)n(CC(=O)NCCC3=CCCCC3)cnc2n1	0.32	/
CCOC(=O)c1sc2ncc3cc4ccccc4nc3c2c1N	-7.3	-0.79
CCOC(=O)c1c(C)oc2nc(C)nc(NCc3cccnc3)c12	-1.1	/
CC1(C)CC(=O)C2=C(C1)N(Cc1ccccc1)C(=O)C2(O)C(F)(F)F (stereo unspecified)	/	-0.58
O=C(O)c1cccc2c1NC(c1ccccc1Br)C1C3CCC(C3)C21 (stereo unspecified)	0.01	0.26
Cc1nc(-c2cc(-c3ccccc3)c(C(F)(F)F)s2)sc1C(=O)O	/	-1.9
CSc1nc(Nc2cccc([N+](=O)[O-])c2)cc(C(F)(F)F)c1C#N	/	1.2
Cc1ccc2nc(C)nc(-c3ccccc3)c2c1	0.53	-0.88

Reprinted from the part before: 6 compounds; new compounds follow.
SMILES	HIV TAR-Tat	CDC25B-CDK2 inh
CCOC(=O)c1c(C)oc2nc(C)nc(NCc3cccnc3)c12	-1.1	/
CC1(C)CC(=O)C2=C(C1)N(Cc1ccccc1)C(=O)C2(O)C(F)(F)F (stereo unspecified)	/	-0.58
O=C(O)c1cccc2c1NC(c1ccccc1Br)C1C3CCC(C3)C21 (stereo unspecified)	0.01	0.26
Cc1nc(-c2cc(-c3ccccc3)c(C(F)(F)F)s2)sc1C(=O)O	/	-1.9
CSc1nc(Nc2cccc([N+](=O)[O-])c2)cc(C(F)(F)F)c1C#N	/	1.2
Cc1ccc2nc(C)nc(-c3ccccc3)c2c1	0.53	-0.88
Cc1cccc(-c2nc3c4c(C)c(C)n(Cc5ccccn5)c4ncn3n2)c1	1.5	-3.2
O=C(c1cccs1)N1CCCc2cc(NS(=O)(=O)c3cc(F)ccc3F)ccc21	0.84	/
COc1cc(NC(=O)CCOc2ccc(F)cc2)cc(OC)c1OC	/	-2.3
CCc1nn(CC(=O)N2CCN(Cc3ccc4c(c3)OCO4)CC2)c(=O)c2cc3sccc3n12	2	-0.39
Cc1[nH]nc(-c2ccc(S(=O)(=O)N3CCN(c4ccccc4)CC3)s2)c1C	-0.17	/
COC(=O)C(CC(C)C)NC(=O)CSc1nnc2c(n1)[nH]c1ccccc12 (stereo unspecified)	2	-0.87
COc1ccc(-n2nnc(-c3nc(-c4ccccc4)no3)c2N)cc1	-0.31	/
CCOC(=O)c1c(NC(=O)CSc2nc3c(c(=O)[nH]2)CCCC3)sc(C)c1C	-0.31	-1.9
O=C(CC1CCCCC1)Nc1nnc(SCc2nnc(-c3ccccc3)o2)s1	0.74	/
CCS(=O)(=O)c1nc(S(=O)(=O)c2ccc(C)cc2)c(NCc2ccco2)s1	1.7	-1.7
O=S(=O)(Cc1ccco1)Cc1nc(-c2ccc(Cl)cc2)cs1	/	-1.3
COc1ccc(C2C(C#N)=C(N)OC3=C2C(=O)CCC3)cc1OC (stereo unspecified)	/	-0.88
O=C(Cn1c(-c2cccs2)cc2ccccc21)NCCCN1CCOCC1	0.74	/
CC1CC(C)CN(C(=O)CN2C(=O)CSc3ccc(S(=O)(=O)N(C)C4CCCCC4)cc32)C1 (stereo unspecified)	0.98	/
